NOMO-1 viab – STK33 inhibitor candidate reducing NOMO-1 cell viability | NOMO-1 AML viability, CellTiter-Glo luminescence, 72 h | inhibition, % (concentration not given with the values) | actives 7.5% (n = 37,000);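 active means most replicates above 80%; inconclusive means exactly half above 80%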;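 further: wells of about 30 µL received 25 nL stock; 0% = median of vehicle wells and 100% = reference inhibitor level; the first replicate is given; inactives centre near 10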
An asterisk follows results filed as active; ? = inconclusive. Only part of the results is shown; rates above refer to the full screens.

SMILES	NOMO-1 viab
COc1ccc(NC(=O)N(C)C[C@@H]2Oc3c(NC(=O)Nc4ccc(F)cc4)cccc3C(=O)N([C@H](C)CO)C[C@@H]2C)cc1	12
COC(=O)c1ccc(NC(=O)CN(C)S(=O)(=O)c2cc(Cl)ccc2Cl)cc1	-17
C[C@H](CO)N1C[C@H](C)[C@@H](CN(C)S(=O)(=O)c2cn(C)cn2)Oc2ccc(NC(=O)C3CC3)cc2C1=O	16
CCC(C)c1cnc(Cc2ccccc2)c(=O)[nH]1 (stereo unspecified)	4
CC1=Nn2c(Cn3nnc4ccccc43)nnc2SC1	2
Cc1ccc(S(=O)(=O)Nc2cccc3c2O[C@@H](CN(C)CC2CCCCC2)[C@@H](C)CN([C@H](C)CO)C3=O)cc1	51
C[C@@H]1CN([C@H](C)CO)C(=O)c2cc(NS(=O)(=O)c3ccc(Cl)cc3)ccc2O[C@H]1CN(C)Cc1ccc2c(c1)OCO2	4
O=C(CC1(O)C(=O)N(Cc2cccc3ccccc23)c2ccccc21)c1ccccc1[N+](=O)[O-] (stereo unspecified)	114*
C[C@H](CO)N1C[C@H](C)[C@H](CN(C)C(=O)Nc2ccc(C(F)(F)F)cc2)Oc2ccc(NC(=O)Nc3ccccc3)cc2CC1=O	23
CC(C)NC(=O)Nc1ccc2c(c1)CC(=O)N([C@H](C)CO)C[C@@H](C)[C@H](CN(C)S(=O)(=O)c1ccc(F)cc1)O2	-4
C[C@@H]1CN([C@@H](C)CO)C(=O)Cc2cc(NC(=O)Nc3ccc(C(F)(F)F)cc3)ccc2O[C@@H]1CN(C)Cc1ccc(Cl)c(Cl)c1	115*
O=C(COc1ccc([N+](=O)[O-])cc1)Nc1cc(Cl)ccc1O	54
Cc1ccc(S(=O)(=O)N(C)C[C@H]2Oc3ccc(NS(C)(=O)=O)cc3CC(=O)N([C@@H](C)CO)C[C@@H]2C)cc1	2
C[C@H](CO)N1C[C@H](C)[C@H](CN(C)C(=O)NC2CCCCC2)Oc2c(NS(=O)(=O)c3cn(C)cn3)cccc2C1=O	-2
C[C@H](CO)N1C[C@H](C)[C@@H](CN(C)S(=O)(=O)c2ccccc2)Oc2ccc(NC(=O)Cc3ccccc3)cc2C1=O	-2
C[C@H]1CN([C@@H](C)CO)C(=O)c2cc(NC(=O)Cc3ccccc3)ccc2O[C@H]1CN(C)C(=O)Nc1ccc(F)cc1	21
COc1ccc(S(=O)(=O)Nc2ccc3c(c2)CC(=O)N([C@@H](C)CO)C[C@H](C)[C@H](CN(C)C(=O)NC(C)C)O3)cc1	24
C[C@H]1CN([C@@H](C)CO)C(=O)c2cc(NC(=O)Nc3ccc(C(F)(F)F)cc3)ccc2O[C@@H]1CN(C)S(=O)(=O)c1ccc(Cl)cc1	121*
C[C@@H]1CN([C@H](C)CO)C(=O)c2cc(NC(=O)Cc3ccccc3)ccc2O[C@@H]1CN(C)S(=O)(=O)c1ccc(F)cc1	-8
O=C(Cn1c(=O)oc2ccccc21)Nc1ccc(S(=O)(=O)N2CCCC2)cc1	30
Cc1ccc(S(=O)(=O)Nc2cccc3c2O[C@H](CN(C)Cc2ccc(C(F)(F)F)cc2)[C@H](C)CN([C@H](C)CO)C3=O)cc1	73
COc1ccc(NC(=O)Nc2ccc3c(c2)C(=O)N([C@@H](C)CO)C[C@@H](C)[C@H](CN(C)C(=O)Nc2ccc(F)cc2)O3)cc1	-4
C[C@H](CO)N1C[C@H](C)[C@@H](CN(C)C(=O)Nc2ccc(F)cc2)Oc2ccc(NC(=O)C3CC3)cc2C1=O	-16
O=C(O)c1oc(C(=O)O)c(OCc2ccccc2)c1OCc1ccccc1	17
Cc1ccc(S(=O)(=O)N(C)C[C@H]2Oc3ccc(NC(=O)CCN4CCOCC4)cc3CC(=O)N([C@@H](C)CO)C[C@H]2C)cc1	22
COc1ccc(NC(=O)Nc2cccc3c2O[C@@H](CN(C)Cc2ccc(C(=O)O)cc2)[C@H](C)CN([C@@H](C)CO)C3=O)cc1	23
CC(=O)C(C#N)C(=O)Nc1cc(Br)ccc1Br (stereo unspecified)	-22
C[C@H]1CN([C@@H](C)CO)C(=O)Cc2cc(NS(=O)(=O)c3cn(C)cn3)ccc2O[C@H]1CN(C)S(=O)(=O)c1ccccc1	-15
Cc1ccc(S(=O)(=O)Nc2cccc3c2O[C@@H](CN(C)Cc2ccncc2)[C@@H](C)CN([C@@H](C)CO)C3=O)cc1	1
CCOc1ccc(NC(=O)C2CC(=O)n3c(nc4ccccc43)N2)cc1 (stereo unspecified)	2

An excerpt taken from the entries so far, as a working copy:
SMILES	NOMO-1 viab
C[C@H]1CN([C@@H](C)CO)C(=O)Cc2cc(NS(=O)(=O)c3cn(C)cn3)ccc2O[C@H]1CN(C)S(=O)(=O)c1ccccc1	-15
Cc1ccc(S(=O)(=O)Nc2cccc3c2O[C@@H](CN(C)Cc2ccncc2)[C@@H](C)CN([C@@H](C)CO)C3=O)cc1	1
CCOc1ccc(NC(=O)C2CC(=O)n3c(nc4ccccc43)N2)cc1 (stereo unspecified)	2

More records follow:
SMILES	NOMO-1 viab
C[C@H]1CN([C@@H](C)CO)C(=O)c2cc(NS(=O)(=O)c3ccc(F)cc3)ccc2O[C@@H]1CN(C)C(=O)Nc1cccc2ccccc12	9
C[C@@H]1CN([C@H](C)CO)C(=O)Cc2cc(NC(=O)CCC(F)(F)F)ccc2O[C@H]1CN(C)Cc1ccc(C(F)(F)F)cc1	42
OCCNc1nc2ccccc2n1CCOc1ccccc1	24
Cc1cc(C(=O)Nc2cccc3c2O[C@@H](CN(C)C)[C@@H](C)CN([C@@H](C)CO)C3=O)n(C)n1	-3
CCOC(=O)CSc1nc2ccc(Br)cc2c(=O)n1-c1ccccc1OC	-9
CCOC(=O)C(N)Cc1ccccc1 (stereo unspecified)	-18
COc1cccc(CNc2nc3nc(C)c(Cc4ccccc4)c(=O)n3[nH]2)c1	11
Cc1noc(C)c1NC(=O)N(C)C[C@H]1Oc2ccc(NC(=O)NC3CCCCC3)cc2C(=O)N([C@@H](C)CO)C[C@@H]1C	3
C[C@H]1CN([C@@H](C)CO)C(=O)c2cccc(NC(=O)c3cnccn3)c2O[C@H]1CN(C)Cc1ccc(Oc2ccccc2)cc1	29
Cc1c(NC(=O)CCCC(=O)O)cccc1C(=O)O	18
Cc1cc(C(=O)Nc2cccc3c2O[C@@H](CN(C)Cc2ccncc2)[C@@H](C)CN([C@H](C)CO)C3=O)n(C)n1	20
N#CC1=C(N)Nc2onc(-c3cccc(O)c3)c2C1c1ccccc1 (stereo unspecified)	40
CS(=O)(=O)N(CC(=O)Nc1ccccc1-c1ccccc1)c1cccc(F)c1	21
C[C@H](CO)N1C[C@H](C)[C@H](CN(C)C)Oc2ccc(NS(=O)(=O)c3ccccc3)cc2C1=O	3
C[C@H]1CN([C@@H](C)CO)C(=O)Cc2cc(NC(=O)Nc3ccccc3)ccc2O[C@H]1CN(C)Cc1ccc(C(=O)Nc2ccccc2N)cc1	139*
COC(=O)c1ccccc1NC(=O)c1ccc(Cl)c(S(=O)(=O)Nc2ccc(C)cc2C)c1	7
OC(COc1ccc2cc(Br)ccc2c1)Cn1cnc2ccccc21 (stereo unspecified)	14
Cc1cc(I)ccc1NC(=O)CN(c1ccc(Cl)c(Cl)c1)S(C)(=O)=O	24
C[C@H](CO)N1C[C@H](C)[C@@H](CN(C)S(=O)(=O)c2cn(C)cn2)Oc2c(NC(=O)C3CC3)cccc2C1=O	12
COc1ccc(C(=O)Nc2ccc(Cl)cc2C(=O)NCCN2CCOCC2)cc1	-13
C[C@H](CO)N1C[C@H](C)[C@H](CN(C)C(=O)Nc2cccc3ccccc23)Oc2c(NC(=O)C3CCOCC3)cccc2C1=O	11
C[C@@H]1CN([C@@H](C)CO)C(=O)c2cccc(NC(=O)c3cnccn3)c2O[C@@H]1CN(C)Cc1ccc2c(c1)OCO2	17
COc1ccc(S(=O)(=O)N(C)C[C@@H]2OCCCC[C@@H](C)Oc3ccc(NC(=O)NC(C)C)cc3C(=O)N([C@H](C)CO)C[C@@H]2C)cc1	4
C[C@@H]1CN([C@H](C)CO)C(=O)c2cc(NC(=O)Nc3ccc(C(F)(F)F)cc3)ccc2O[C@@H]1CN(C)C(=O)Nc1ccc(C(F)(F)F)cc1	94*
CC1CCCCN1C(=S)Nc1ccc(S(=O)(=O)N2CCCCC2)cc1 (stereo unspecified)	17
O=C(CC(C(=O)O)N1CCCCC1)Nc1ccccc1 (stereo unspecified)	48
C[C@@H]1CN([C@@H](C)CO)C(=O)c2cc(NS(=O)(=O)c3ccc(Cl)cc3)ccc2O[C@@H]1CN(C)S(C)(=O)=O	-9
CNC[C@H]1Oc2ccc(NC(=O)NC3CCCCC3)cc2CC(=O)N([C@H](C)CO)C[C@H]1C	3
COc1ccc(Cl)c(Cn2c(NCc3ccco3)nc3c2c(=O)n(C)c(=O)n3C)c1	20
CC(=O)Oc1c(-c2ccccc2)oc2c(CC=C(C)C)c3c(c(OC(C)=O)c2c1=O)C=CC(C)(C)O3	24
Cc1noc(C)c1NC(=O)Nc1cccc2c1O[C@@H](CN(C)S(=O)(=O)c1ccccc1)[C@H](C)CN([C@@H](C)CO)C2=O	-7
CSc1nc2ccccc2c(=O)n1C	11
Cc1noc(C)c1S(=O)(=O)N(C)C[C@@H]1Oc2ccc(N(C)C)cc2CC(=O)N([C@H](C)CO)C[C@@H]1C	23
CCn1ccc(CNC(=O)Nc2ccc(Cl)cc2Cl)n1	24
C[C@@H]1CN([C@@H](C)CO)C(=O)Cc2cc(NS(C)(=O)=O)ccc2O[C@@H]1CN(C)Cc1ccncc1	14
O=C1C2=C(Nc3ccccc3S(=O)(=O)C2c2ccc(Cl)cc2)c2ccccc21 (stereo unspecified)	121*
CC(C)NC(=O)Nc1cccc2c1O[C@H](CN(C)Cc1ccccc1)[C@H](C)CN([C@@H](C)CO)C2=O	10
Cc1cc(C)nc(NS(=O)(=O)c2ccc(NC(=O)c3ccc(-c4ccccc4)cc3)cc2)n1	34
C[C@@H]1CN([C@H](C)CO)C(=O)c2cccc(NC(=O)Nc3ccc(C(F)(F)F)cc3)c2O[C@@H]1CN(C)S(=O)(=O)c1cn(C)cn1	17
C[C@@H]1CN([C@@H](C)CO)C(=O)c2cccc(N(C)C)c2O[C@@H]1CN(C)C(=O)Nc1ccc2c(c1)OCO2	21
CC(C)NC(=O)Nc1ccc2c(c1)CC(=O)N([C@H](C)CO)C[C@H](C)[C@H](CN(C)C(=O)Nc1cccc3ccccc13)O2	13
CCOc1ccc(OCC(=O)Nc2ccc(C)cc2[N+](=O)[O-])cc1	-18
O=C(Nc1cccc(Br)c1)C1CN(S(=O)(=O)c2ccccc2)CCN1S(=O)(=O)c1ccccc1 (stereo unspecified)	11
Cc1cc(C)c(NC(=O)CSc2nc(-c3ccc(F)cc3)cs2)c(C)c1	?
Cn1c(NCCCO)nc2ccccc21	20
Cc1noc(C)c1NC(=O)N(C)C[C@@H]1Oc2c(NC(=O)c3ccncc3)cccc2C(=O)N([C@@H](C)CO)C[C@@H]1C	5
CN1C(=O)C(Cc2ccccc2)(c2ccccc2)c2ccccc21 (stereo unspecified)	48
CC[C@H](C)/C=C(C)/C=C/C(=O)Cc1cc(O)c(C)c(O)c1C=O	?
Cc1noc(C)c1S(=O)(=O)Nc1ccc2c(c1)CC(=O)N([C@H](C)CO)C[C@@H](C)[C@H](CN(C)C)O2	10
Cc1noc(C)c1S(=O)(=O)Nc1cccc2c1O[C@H](CN(C)Cc1ccc(Oc3ccccc3)cc1)[C@H](C)CN([C@H](C)CO)C2=O	26
C[C@@H]1CN([C@H](C)CO)C(=O)c2cc(NC(=O)Nc3ccc(F)cc3)ccc2O[C@@H]1CN(C)C(=O)Nc1ccccc1	23
Cc1cccc(NC(=O)CNS(=O)(=O)c2ccc(Br)cc2)c1C	2
C[C@H]1CN([C@@H](C)CO)C(=O)c2cc(NC(=O)Nc3ccc(F)cc3)ccc2O[C@@H]1CN(C)S(C)(=O)=O	1
COc1ccc(S(=O)(=O)Nc2cccc3c2O[C@H](CN(C)C(=O)Nc2ccc4c(c2)OCO4)[C@@H](C)CN([C@H](C)CO)C3=O)cc1	22
COc1ccc(NC(=O)N(C)C[C@H]2Oc3ccc(NC(=O)Cc4cn(C)c5ccccc45)cc3CC(=O)N([C@@H](C)CO)C[C@H]2C)cc1	25
N#CCCn1c2c(ccc1=O)CCCC2	0
C[C@]12C[C@H](O)C3C(CC[C@@H]4C[C@H](O)CC[C@]34C)C1CC[C@@H]2C(=O)CO (stereo partly specified)	-3
O=c1c2c(-c3ccccc3)csc2nc2n1CCC2	2
CCCCc1c(C)nc2ccc(OC)cc2c1SCC(=O)O	11
C[C@@H]1CN([C@@H](C)CO)C(=O)c2cccc(NC(=O)C3CC3)c2O[C@@H]1CN(C)CC1CC1	9
C[C@H](CO)N1C[C@H](C)[C@H](CN(C)C(=O)Nc2ccccc2)Oc2ccc(NC(=O)CCC(F)(F)F)cc2C1=O	4

Molecules listed so far that contain a Cl atom (12):
SMILES	NOMO-1 viab
COC(=O)c1ccc(NC(=O)CN(C)S(=O)(=O)c2cc(Cl)ccc2Cl)cc1	-17
C[C@@H]1CN([C@H](C)CO)C(=O)c2cc(NS(=O)(=O)c3ccc(Cl)cc3)ccc2O[C@H]1CN(C)Cc1ccc2c(c1)OCO2	4
C[C@@H]1CN([C@@H](C)CO)C(=O)Cc2cc(NC(=O)Nc3ccc(C(F)(F)F)cc3)ccc2O[C@@H]1CN(C)Cc1ccc(Cl)c(Cl)c1	115*
O=C(COc1ccc([N+](=O)[O-])cc1)Nc1cc(Cl)ccc1O	54
C[C@H]1CN([C@@H](C)CO)C(=O)c2cc(NC(=O)Nc3ccc(C(F)(F)F)cc3)ccc2O[C@@H]1CN(C)S(=O)(=O)c1ccc(Cl)cc1	121*
COC(=O)c1ccccc1NC(=O)c1ccc(Cl)c(S(=O)(=O)Nc2ccc(C)cc2C)c1	7
Cc1cc(I)ccc1NC(=O)CN(c1ccc(Cl)c(Cl)c1)S(C)(=O)=O	24
COc1ccc(C(=O)Nc2ccc(Cl)cc2C(=O)NCCN2CCOCC2)cc1	-13
C[C@@H]1CN([C@@H](C)CO)C(=O)c2cc(NS(=O)(=O)c3ccc(Cl)cc3)ccc2O[C@@H]1CN(C)S(C)(=O)=O	-9
COc1ccc(Cl)c(Cn2c(NCc3ccco3)nc3c2c(=O)n(C)c(=O)n3C)c1	20
CCn1ccc(CNC(=O)Nc2ccc(Cl)cc2Cl)n1	24
O=C1C2=C(Nc3ccccc3S(=O)(=O)C2c2ccc(Cl)cc2)c2ccccc21 (stereo unspecified)	121*
